Source: PubChem
DUX4 txn inh: blocks DUX4-driven transcriptional activation | 293T-iDUX4 ZSCAN4-Gaussia luciferase reporter, 24 h; stronger effect = lower value | activity change, negative = inhibition, % (test concentration not listed) | 37,000 tested, 0.8% active;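 active = -10% or lower and over 25 points stronger than a control reporter; inconclusive = -10% or lower with a smaller gap; inactive = above -10%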;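 note: 0% = median of neutral control wells and -100% = median of positive control wells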
DUX4 txn inh difference: recorded beside DUX4 txn inh, whose call it bears; Gaussia minus Italica difference, %; measured here: selective DUX4 reporter inhibition;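 worked out from the two reporters; negative = selective loss of the DUX4 reporter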
DUX4 txn inh control: further read-out of DUX4 txn inh, marked with its call; activity change, negative = inhibition, %; measured here: Italica tet-on control reporter;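 0 = neutral control and -100 = positive control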
* hit, by the source's call; ? = inconclusive; . = not tested or not shown. This is a subset (hit frequency here may not be typical).

DUX4 txn inh	DUX4 txn inh difference	DUX4 txn inh control	smiles
-3	-5	2.2	CC(=O)N(C)C[C@H]1Oc2cc(-c3ccc(C)cc3)ccc2S(=O)(=O)N([C@H](C)CO)C[C@@H]1C
1	4	-2.6	O=C1CN(S(=O)(=O)c2cccc(F)c2)C[C@H]2[C@@H](c3ccc(C4=CCCC4)cc3)[C@@H](CO)N12
0	4	-3.4	CCCNC(=O)[C@H]1[C@H](CO)[C@H]2Cn3c(ccc(-c4cccc(OC)c4)c3=O)[C@@H]1N2CCC
0	-1	1.7	C[C@H]1CN([C@@H](C)CO)C(=O)c2cc(NC(=O)Cn3cnnn3)ccc2O[C@H]1CN(C)Cc1ccc(C(=O)Nc2ccccc2N)cc1
10	0	9.7	O=C(c1ccccn1)N1CC2(C1)[C@H](c1ccccc1)[C@@H](CO)N2C(=O)CC1CC1
3	3	0.0	CO[C@H]1CN(C)C(=O)c2ccc(NC(=O)Nc3ccccc3Cl)cc2OC[C@@H](C)NC[C@H]1C
2	2	-0.7	C[C@@H](NC(=O)C[C@H]1C=C[C@H](NC(=O)CN2CCOCC2)[C@H](CO)O1)c1ccccc1
10	7	3.1	C[C@H]1CN([C@@H](C)CO)C(=O)CCCn2nncc2CO[C@H]1CN(C)S(=O)(=O)c1cccs1
21	6	15	CCCC(=O)N1CC2(CN(Cc3cccnc3)C2)c2c([nH]c3cc(OC)ccc23)[C@@H]1CO
8	14	-5.9	CN(C)CC#Cc1ccc([C@H]2[C@@H](CO)N3CCCCN(S(=O)(=O)c4ccccc4)C[C@H]23)cc1
0	-2	1.6	C[C@@H]1CN([C@@H](C)CO)C(=O)c2cccc(N(C)C)c2O[C@@H]1CN(C)CC1CC1
19	15	3.9	OC[C@H]1[C@@H](c2ccc(Br)cc2)[C@H]2CNCCCCN21
-5	-4	-1.6	C[C@H](CO)N1C[C@H](C)[C@@H](CN(C)C(=O)Nc2cccc(C(F)(F)F)c2)OCc2cnnn2CCCC1=O
6	0	5.9	CC=Cc1ccc2n(c1=O)C[C@@H]1[C@@H](CO)[C@H](C(=O)N(C)C)[C@H]2N1CC1CC1 (mixture of isomers)
6	0	6.0	CCS(=O)(=O)N1CC2(C1)[C@@H](c1ccccc1)[C@@H](CO)N2C(=O)C1CC1
5	6	-1.0	COc1ccc(S(=O)(=O)N2C[C@H](O)COC[C@H]3O[C@H](CC(=O)NCCN4CCCCC4)CC[C@@H]32)cc1
?	.	.	COC(=O)[C@H]1[C@H](CO)[C@H]2Cn3c(ccc(-c4ccccc4OC)c3=O)[C@H]2N1CC1CCCCC1
5	8	-2.5	O=C(C[C@@H]1CC[C@@H]2[C@H](COC[C@H](O)CN2Cc2ccc3c(c2)OCO3)O1)N1CCOCC1
2	3	-1.5	O=C(C1CC1)N1C[C@@H]2[C@H](c3ccccc31)[C@H](CO)N2C(=O)c1cccc(F)c1
-4	1	-4.9	CC(C)NC(=O)N(C)C[C@H]1Oc2ccc(NS(=O)(=O)c3ccc(Cl)cc3)cc2C(=O)N([C@@H](C)CO)C[C@H]1C
7	6	0.2	O=C(O)C[C@@H]1C[C@H]2c3cc(NC(=O)NC4CCCC4)ccc3O[C@H]2[C@H](CO)O1
?	.	.	CC(C)C#Cc1ccc([C@@H]2[C@@H](CO)N3CCCCN(C(=O)c4ccc(F)cc4)C[C@@H]23)cc1
-32*	-29*	-3.4*	C[C@H]1CN([C@@H](C)CO)C(=O)c2c(c3ccccc3n2C)-c2ccccc2CO[C@@H]1CN(C)C(=O)c1ccc(F)cc1
0	-10	9.5	CC[C@@H]1CC=CC[C@@H](C)Oc2ccccc2C(=O)N(C)[C@H](C(C)C)C(=O)N1 (mixture of isomers)
4	3	1.0	O=C(C[C@@H]1CC[C@@H](NS(=O)(=O)c2ccc(F)cc2)[C@@H](CO)O1)NC1CCCCC1
3	5	-2.5	C[C@@H]1CN([C@H](C)CO)C(=O)CCCn2cc(nn2)CO[C@H]1CN(C)C(=O)Nc1cccc2ccccc12
15	11	3.9	O=C(C[C@H]1CC[C@H]2[C@@H](COC[C@@H](O)CN2S(=O)(=O)c2cccc(F)c2)O1)NCc1ccncn1
17	5	12	O=C(C[C@H]1CC[C@H]2[C@@H](COC[C@@H](O)CN2S(=O)(=O)c2ccc(F)cc2)O1)NCc1ccncn1
4	4	-0.2	CC(C)C[C@H]1COCn2nncc2CC[C@@H](Cc2ccccc2)C(=O)N1
7	6	1.1	O=C(C1CCOCC1)N1CC(=O)N2[C@@H](CO)[C@H](c3ccc(/C=C/c4ccccc4)cc3)[C@@H]2C1
8	-15	24	COC(=O)c1ccc(CN2CC(=O)N3[C@@H](CO)[C@@H](c4ccc(-c5cccnc5)cc4)[C@@H]3C2)cc1
21	15	6.1	CC(C)(O)C#Cc1ccc([C@@H]2[C@@H](CO)N3CCCCN(S(C)(=O)=O)C[C@@H]23)cc1
-2	-1	-1.5	COc1ccc(S(=O)(=O)Nc2ccc3c(c2)C(=O)N([C@H](C)CO)C[C@H](C)[C@H](CN(C)C(=O)CCC(F)(F)F)OCCCC[C@@H](C)O3)cc1
7	11	-4.1	C/C=C/c1ccc2c(c1)O[C@H](CN(C)C(=O)CN1CCOCC1)[C@H](C)CN([C@H](C)CO)S2(=O)=O
2	0	2.1	COCC(=O)N(C)C[C@H]1[C@H](c2ccccc2)[C@@H](CO)N1C(=O)NC(C)C
0	-4	3.1	O=C(N[C@H]1CC[C@@H](CCNS(=O)(=O)c2ccccc2Cl)O[C@H]1CO)c1ccc(F)cc1
1	-3	3.4	CO[C@H]1CC[C@H]2CCOc3c(C#N)cccc3C(=O)N(C)[C@@H](C)C(=O)N(C)C[C@@H]1O2
4	6	-2.0	CCNC(=O)C[C@@H]1CC[C@@H]2[C@H](COC[C@H](O)CN2C(=O)c2ccccn2)O1
?	.	.	COCC(=O)N1CCC2(CC1)CN(Cc1ccccc1F)[C@H](CO)c1[nH]c3cc(OC)ccc3c12
?	.	.	CO[C@@H]1CN(C)C(=O)c2cc(NC(=O)c3ccc(Oc4ccccc4)cc3)ccc2OC[C@@H](C)NC[C@H]1C
-2	-6	4.4	CCCC(=O)Nc1ccc2c(c1)C(=O)N(C)C[C@H](OC)[C@H](C)CN(C(=O)CC1CC1)[C@@H](C)CO2
-1	-22	21	c1cc(-c2ccc(C3[C@@H]4CN(Cc5nccs5)C[C@H]3N4)cc2)ccn1 (stereo not given in full)
20	18	1.8	CCS(=O)(=O)N1[C@H](CO)[C@@H](c2ccccc2)C12CN(C(=O)C1CCC1)C2
-4	-4	0.0	O=C(CC(F)(F)F)N1C[C@@H]2[C@H](c3ccccc31)[C@@H](CO)N2C(=O)Cc1ccccc1
-9	-17	7.6	CCCNC(=O)N1CC2(CCN(CC3CCCCC3)CC2)c2c([nH]c3cc(OC)ccc23)[C@@H]1CO
7	-1	7.8	O=C(C[C@H]1C[C@@H]2c3cc(NC(=O)C4CCOCC4)ccc3O[C@@H]2[C@H](CO)O1)NCC(F)(F)F
3	-5	8.0	COCC(=O)N1CC(=O)N2[C@H](C1)[C@@H](c1ccc(-c3ccccc3)cc1)[C@@H]2CO
-2	-2	0.0	Cc1noc(C)c1NC(=O)N(C)C[C@H]1Oc2ccc(NC(=O)CCCCCC(=O)Nc3ccccc3N)cc2CC(=O)N([C@@H](C)CO)C[C@@H]1C
13	5	8.0	Cc1ccccc1S(=O)(=O)N1CCCCN2[C@H](CO)[C@@H](c3ccc(C#CCN(C)C)cc3)[C@H]2C1
8	2	6.0	O=C(c1ccccn1)N1CC[C@@H]2[C@@H](CO)Nc3ccc(Br)cc3[C@@H]21
4	15	-11	CC(=O)N1[C@@H]2CN(S(=O)(=O)c3ccccc3F)c3ccccc3[C@@H]2[C@@H]1CO
8	9	-1.4	O=C(c1cccnc1)N1CC2(C1)[C@@H](c1ccccc1)[C@@H](CO)N2Cc1ccc(Cl)cc1
6	-1	7.1	O=C1CN(Cc2ccc(F)cc2)C[C@H]2[C@H](c3ccc(-c4ccccc4)cc3)[C@@H](CO)N12
0	0	0.0	CO[C@@H]1CN(C)C(=O)c2cc(NS(=O)(=O)c3ccccc3F)ccc2OC[C@@H](C)N(S(C)(=O)=O)C[C@H]1C
11	5	6.9	CC=Cc1ccc2n(c1=O)C[C@@H]1[C@@H](CO)[C@H](C(=O)N3CCOCC3)N(Cc3ccccc3)[C@H]21 (mixture of isomers)
4	4	0.9	CN(C)CC(=O)Nc1ccc2c(c1)[C@H]1C[C@@H](CC(=O)NC3CCCCC3)O[C@H](CO)[C@H]1O2
9	9	-0.6	CO[C@@H]1CN(C)C(=O)c2ccc(NC(=O)c3cc(C)on3)cc2OC[C@@H](C)N(CC2CC2)C[C@@H]1C
9	6	3.4	C/C=C/c1ccc([C@H]2[C@H](CO)N(C(=O)C3CC3)C23CN(C(=O)NC(C)C)C3)cc1
-9	-8	-1.2	O=C1N[C@H](Cc2ccccc2)COCc2cn(nn2)CC[C@H]1Cc1cccc(F)c1
0	-6	6.8	Cc1nn(C)cc1NC(=O)C[C@@H]1CC[C@H]2[C@@H](COc3ccc(NC(=O)Nc4cccc(Cl)c4)cc3C(=O)N2C)O1

11 consecutive records from above, for reference:
DUX4 txn inh	DUX4 txn inh difference	DUX4 txn inh control	smiles
2	0	2.1	COCC(=O)N(C)C[C@H]1[C@H](c2ccccc2)[C@@H](CO)N1C(=O)NC(C)C
0	-4	3.1	O=C(N[C@H]1CC[C@@H](CCNS(=O)(=O)c2ccccc2Cl)O[C@H]1CO)c1ccc(F)cc1
1	-3	3.4	CO[C@H]1CC[C@H]2CCOc3c(C#N)cccc3C(=O)N(C)[C@@H](C)C(=O)N(C)C[C@@H]1O2
4	6	-2.0	CCNC(=O)C[C@@H]1CC[C@@H]2[C@H](COC[C@H](O)CN2C(=O)c2ccccn2)O1
?	.	.	COCC(=O)N1CCC2(CC1)CN(Cc1ccccc1F)[C@H](CO)c1[nH]c3cc(OC)ccc3c12
?	.	.	CO[C@@H]1CN(C)C(=O)c2cc(NC(=O)c3ccc(Oc4ccccc4)cc3)ccc2OC[C@@H](C)NC[C@H]1C
-2	-6	4.4	CCCC(=O)Nc1ccc2c(c1)C(=O)N(C)C[C@H](OC)[C@H](C)CN(C(=O)CC1CC1)[C@@H](C)CO2
-1	-22	21	c1cc(-c2ccc(C3[C@@H]4CN(Cc5nccs5)C[C@H]3N4)cc2)ccn1 (stereo not given in full)
20	18	1.8	CCS(=O)(=O)N1[C@H](CO)[C@@H](c2ccccc2)C12CN(C(=O)C1CCC1)C2
-4	-4	0.0	O=C(CC(F)(F)F)N1C[C@@H]2[C@H](c3ccccc31)[C@@H](CO)N2C(=O)Cc1ccccc1
-9	-17	7.6	CCCNC(=O)N1CC2(CCN(CC3CCCCC3)CC2)c2c([nH]c3cc(OC)ccc23)[C@@H]1CO

(list continues)
DUX4 txn inh	DUX4 txn inh difference	DUX4 txn inh control	smiles
5	-2	6.9	CN1C(=O)c2cc(NS(C)(=O)=O)ccc2OC[C@@H]2O[C@H](CC(=O)NCc3ccccc3)CC[C@H]21
-2	2	-3.7	C[C@H](CO)N1C[C@H](C)[C@H](CN(C)C(=O)CCCN(C)C)OCCCC[C@H](C)Oc2ccc(NC(=O)c3ccccc3)cc2C1=O
-2	0	-2.0	CN(C)CC(=O)Nc1ccc2c(c1)[C@@H]1C[C@@H](CC(=O)NCc3ccccn3)O[C@H](CO)[C@@H]1O2
-4	-4	0.1	Cc1cc(C(=O)Nc2ccc3c(c2)C(=O)N(C)[C@@H]2CC[C@H](CC(=O)N[C@@H](C)c4ccccc4)O[C@@H]2CO3)no1
-3	-2	-0.3	C[C@@H](NC(=O)[C@@H]1[C@@H](CO)[C@@H]2Cn3c(ccc(-c4ccccc4)c3=O)[C@H]1N2C)c1ccccc1
0	-3	2.7	C[C@@H]1CN([C@H](C)CO)C(=O)c2ccccc2-c2ccccc2CO[C@@H]1CN(C)S(=O)(=O)c1ccsc1
1	4	-3.5	CC(C)COC(=O)N(C)C[C@H]1OCc2cn(nn2)CCCC(=O)N([C@H](C)CO)C[C@H]1C
-2	-4	2.0	CCC(=O)Nc1ccc2c(c1)C(=O)N(C)C[C@@H](OC)[C@H](C)CN(C(=O)c1cnccn1)[C@@H](C)CO2
17	5	12	CC(C)NC(=O)N1[C@H](CO)[C@@H](c2ccccc2)C12CN(C(=O)Cc1cccnc1)C2
?	.	.	C[C@@H]1CN([C@H](C)CO)C(=O)c2ccccc2-c2ccccc2CO[C@@H]1CN(C)Cc1ccccc1C(F)(F)F
-9	-2	-6.7	CO[C@@H]1CN(C)C(=O)c2cc(NC(=O)CN(C)C)ccc2OC[C@@H](C)N(Cc2ccccc2F)C[C@H]1C
3	-1	3.9	CN(C[C@H]1[C@H](c2ccccc2)[C@@H](CO)N1C(=O)C1CCC1)C(=O)c1ccccn1
?	.	.	CCC(=O)N1CC2(CCN(Cc3ccc(F)cc3)CC2)c2c(n(C)c3cc(OC)ccc23)[C@H]1CO
-2	-2	-0.4	CNC[C@@H]1OCCCC[C@@H](C)Oc2ccc(NS(=O)(=O)c3ccc(F)cc3)cc2C(=O)N([C@H](C)CO)C[C@H]1C
0	0	0.2	C[C@H](CO)N1C[C@H](C)[C@@H](CN(C)C(=O)CCCN(C)C)OCCCC[C@H](C)Oc2ccc(N(C)C)cc2C1=O
?	.	.	CN(C)Cc1cn(CC[C@@H]2CC[C@H](N)[C@@H](CO)O2)nn1
-38*	-52*	14*	OC[C@H]1[C@H](c2ccc(C#Cc3cccnc3)cc2)[C@@H]2CN(Cc3ccccc3F)CCCCN12
8	5	3.0	O=C(C1CCOCC1)N1CC(=O)N2[C@@H](CO)[C@@H](c3ccc(C#CCc4ccccc4)cc3)[C@@H]2C1
